Screening data (PubChem)
PABP polyA inh: PABP poly(A) RNA binding inhibitors, primary screen, biochemical, fluorescence polarization, uHTS; actives 1% (n = 290,000); AID 2014, 2009; inhibition, % at 35 µM;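 active = 50% or more with normal probe brightness, or confirmed in later tests; inconclusive = above 50% with abnormal brightness, or retests that disagree; inactive = below 50% or failed in later tests; about a fifth of its hits are not listed in these tables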;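 note: calls also rest on retests at 20 µM and on dose response follow-up; controls were probe without protein and protein plus probe with vehicle; some compounds called inactive have numbers as strong as hits; many hits fall short of the cut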
Target sequence (P11940 whole entry, looked up): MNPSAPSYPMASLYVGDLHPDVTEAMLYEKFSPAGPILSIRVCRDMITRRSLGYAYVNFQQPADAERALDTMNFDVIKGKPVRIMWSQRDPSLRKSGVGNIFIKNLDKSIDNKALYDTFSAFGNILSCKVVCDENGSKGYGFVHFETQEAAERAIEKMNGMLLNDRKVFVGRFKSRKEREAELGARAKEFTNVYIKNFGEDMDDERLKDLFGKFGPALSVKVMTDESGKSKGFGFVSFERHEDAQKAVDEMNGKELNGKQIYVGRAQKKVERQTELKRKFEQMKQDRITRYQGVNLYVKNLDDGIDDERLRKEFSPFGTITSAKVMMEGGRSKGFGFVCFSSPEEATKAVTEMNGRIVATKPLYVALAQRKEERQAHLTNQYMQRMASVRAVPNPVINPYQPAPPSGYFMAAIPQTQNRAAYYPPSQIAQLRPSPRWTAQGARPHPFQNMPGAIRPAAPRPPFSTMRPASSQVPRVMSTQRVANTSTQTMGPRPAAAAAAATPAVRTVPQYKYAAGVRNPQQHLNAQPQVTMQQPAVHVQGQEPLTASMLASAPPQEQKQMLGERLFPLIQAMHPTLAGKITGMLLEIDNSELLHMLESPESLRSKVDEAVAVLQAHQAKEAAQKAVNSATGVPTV
UUG fidelity: modulators of yeast start codon fidelity, primary screen, whole organism, S. cerevisiae, single point, plate reader; S. cerevisiae UUG-firefly luciferase reporter, luminescence/redox ratio; actives 0.13% (n = 350,000); activity score, % at 18.7 µM; AID 602363, 2012;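 active = replicate mean at a twofold rise or more, about +100% in these data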;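 note: firefly luciferase made from a UUG start codon reports start codon fidelity; reporter light over untreated wells divided by growth signal over untreated wells; some hits fall short of that in this replicate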
eIF4H FP inh: human eIF4H binding inhibitors, primary screen, translation initiation inhibitor project, biochemical, uHTS, fluorescence polarization. Eukaryotic translation initiation factor 4H (Homo sapiens), Q15056. eIF4H fluorescence polarization binding assay. inhibition, % at 35 µM. actives 0.94% (n = 290,000). AID 2012, 2009;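 active = 50% or more with normal probe brightness, or confirmed in later tests; inconclusive = above 50% with abnormal brightness, or retests that disagree; inactive = below 50% or failed in later tests; about a fifth of its hits are not listed in these tables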;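 note: calls also rest on retests at 20 µM and on dose response follow-up; 0% = protein and probe with vehicle and 100% = probe without protein; strong numbers were not always called active; many hits fall short of the cut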
CSC inhib: cancer stem cell viability inhibitors, primary screen, luminescence | inhibition, % at 7.5 µM | cancer stem cell-like cells viability | actives 1.1% (n = 300,000);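 active = mean at 75% or more and at least half the replicates too; inconclusive = mean and replicates disagree; tested in HMLE shEcad cells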;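 note: 0% = median of negative and 100% = median of positive control wells; the first replicate is given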
MT1-MMP act inh: blockers of MT1-MMP proenzyme processing, primary screen, HT1080 RFP-PRO-GFP cells, GFP/RFP fluorescence; Matrix metalloproteinase-14 (Homo sapiens), P50281; GFP/RFP ratio fluorescence, overnight; percent of plate control window, DMSO zero; GFP/RFP ratio change, % at 20 µM; actives 0.061% (n = 360,000); AID 651647, 2012;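 active = GFP/RFP ratio change of at least 30% with cell ATP level not reduced by more than half and red fluorescence within 50% of control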; note: strong numbers were not always called active
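Material: RFP-PRO-GFP reporter HT1080 cells. Dosing: single-point 20 µM compound, 1% DMSO. Controls: DMSO and RFP-L50D-GFP cell wells. Timing: cells overnight before dosing, compound overnight, 37 °C, 5% CO2. Measure: GFP/RFP fluorescence ratio.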
Rce1 inhib: yeast Rce1p protease inhibitors, primary screen, biochemical, fluorescence, cell-free homogeneous; yeast membranes, quenched prenylated peptide cleavage fluorescence; CAAX prenyl protease 2 (Saccharomyces cerevisiae (strain ATCC 204508 / S288c)), Q03530; AID 2563, 2010; actives 0.27% (n = 290,000); calls only;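 active = fall in fluorescence gain of 50% or more versus controls, with final raw signal at or below 3038400; inconclusive = same 50% fall but final raw signal above 3038400; inactive = fall in fluorescence gain under 50%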;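 note: plate controls were neutral control wells for no effect and wells lacking membranes for full effect; tested at 10 µM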
HIV Env fusion: inhibitors of HIV-1 Env-driven cell-cell fusion, primary screen, HeLa-JRFL effector, CEM21 target cells, luciferase; inhibition, % at 12.3 µM; actives 1.1% (n = 360,000);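 active = mean replicate inhibition score of at least 50 and every replicate individually at or above 50; inconclusive = only one of the two criteria met; inactive = mean below 50 and not all replicates reaching 50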;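 note: 0% = plate neutral controls and 100% = maraviroc near 300 nM; one replicate is shown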
eIF4H FP inh retest: also measured in eIF4H FP inh; calls as there; inhibition, %; compound at 20 µM; confirmation average;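 mean of two retest wells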
PABP polyA inh retest: further read-out of PABP polyA inh, marked with its call; inhibition, %; compound at 20 µM; confirmation repeats;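 mean of two retest wells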
MT1-MMP act inh RFP: also measured in MT1-MMP act inh; calls as there; RFP signal change, %; measured here: RFP expression control read;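 0 = vehicle wells; hits needed this value within 50% of zero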
* hit, by the source's call; i = inactive; ? = inconclusive; . = not tested or not shown.

SMILES	PABP polyA inh	UUG fidelity	eIF4H FP inh	CSC inhib	MT1-MMP act inh	MT1-MMP act inh RFP	Rce1 inhib	HIV Env fusion	others
Cc1nc(S(=O)(=O)c2ccc(Cl)cc2)nc2c1CCC2	-6	.	0	31	1	1	i	.
COc1ccc(CCN=C(N)NS(=O)(=O)c2ccccc2)cc1	2	.	2	-9	-3	-5	i	12
Cc1ccc(NC(=O)Cn2ccc([N+](=O)[O-])n2)cc1Cl	-2	-8	2	-3	4	-3	i	12
Cc1cccn2c(=O)c(/C=C(\C#N)S(=O)(=O)c3ccccc3)c(N3CCN(Cc4ccccc4)CC3)nc12	59*	3	78*	17	1	1	i	4
O=C(Nc1ccc(OC(F)(F)F)cc1)c1[nH]ncc1[N+](=O)[O-]	7	.	6	12	-1	-2	i	-2
O=C(O)CCc1ccc(-c2ccc(Br)cc2)o1	6	-26	-1	-6	-5	-2	i	-6
CC(=O)Oc1ccc2c(c1)OC(c1ccccc1)CC21CC(C)(C)NC(=S)N1 (centres undefined)	2	-29	3	15	.	.	i	.
Cc1ccc(C)c(N2CCN(S(=O)(=O)c3ccc4c(c3)CC(=O)N4C)CC2)c1	-18	-13	-16	1	-2	1	i	-2
O=C(NCc1ccco1)c1ccc(CS(=O)c2ccccc2Cl)o1 (centres undefined)	.	8	.	.	5	1	.	17
O=C(CCN1C(=O)COc2ccccc21)NCCCN1CCc2ccccc2C1	-18	2	-4	2	-4	-1	i	7
CCOC(=O)NC(=O)C(=CNc1cccc(C)c1)C(=O)NC(=O)OCC	28	.	3	3	-1	5	.	23
CCOC(=O)c1c(N)sc(C(C)=O)c1C	17	-15	1	15	4	2	i	i
CCOC(=O)c1c(C(F)(F)F)nc2ncccn12	4	-10	5	2	2	2	.	-28
Cc1cccc(-c2c3c(nc4c2c(=O)n(C)c(=O)n4C)-c2ccccc2C3O)c1 (centres undefined)	.	1	.	-5	-3	-5	.	5
Cc1ccc(S(=O)(=O)NC(=O)Nc2cccc(C)n2)cc1	1	-1	-3	.	1	0	i	4
Cc1ccc(Cl)cc1N(C(=O)c1csnn1)C(C(=O)NC1CCCC1)c1ccco1 (centres undefined)	3	-12	-2	-4	-6	1	i	1
CCC(=O)N1CCN(c2ccc(NC(=O)c3ccc(N4CCCC4)c([N+](=O)[O-])c3)cc2)CC1	?	.	-2	.	3	1	i	16
CCOC(=O)N1CCN(S(=O)(=O)c2cccc3nsnc23)CC1	6	-7	-9	-12	0	-3	.	.
COCCn1c(=NC(=O)C2COc3ccccc3O2)sc2cc(S(N)(=O)=O)ccc21 (centres undefined)	-10	.	-8	-2	-9	-6	i	7
Cn1c(C(O)c2ccc3c(c2)OCO3)nc2ccccc21 (centres undefined)	-4	-17	-4	1	-1	0	i	.
Cc1nnc(Sc2cc(C(=O)NCCCOC(C)C)c3ccccc3n2)s1	-6	-19	0	19	6	8	i	-25
Cc1ccc(NS(=O)(=O)c2ccc(C(=O)NCc3ccncc3)cc2)cc1	.	-5	.	8	-2	-17	i	17
CCCCCCOC(=O)/C=C/c1c(C)[nH]c(=O)[nH]c1=O	-9	-17	-13	34	-5	-9	i	.
O=C(NNC(=O)c1nn(-c2ccc(F)cc2)ccc1=O)Nc1cccc(Cl)c1	4	4	10	-8	6	0	i	-10
Cc1[nH][nH]c(=O)c1C(c1ccc([N+](=O)[O-])cc1)c1c(C)[nH][nH]c1=O	8	.	-6	-23	-5	-3	i	14
COc1ccc(/C=N\NC(=O)c2ccc(=O)[nH]n2)cc1O	2	-11	-15	.	10	7	i	-1
COc1ccc(N(C(=O)CNC(=O)c2ccco2)C(C(=O)NCC2CCCO2)c2ccccc2)cc1 (centres undefined)	2	7	0	-20	0	3	i	2
C=CCC(Nc1ccccc1)c1cccc(OC)c1OC (centres undefined)	4	-4	0	-2	-2	-1	i	4
O=C(O)CCCCCCCCCCCc1ccccc1	8	-11	6	-10	2	2	i	.
COc1cc(C(=O)NCCSc2ccc(Cl)cc2)cc(OC)c1OC	-5	6	-4	-5	2	-2	i	13
Cc1c(OCC(=O)C(C)(C)C)ccc2c(-c3ccccc3)cc(=O)oc12	-2	-11	4	23	-1	-5	i	7
COC(=O)c1c(C(=O)OC)c2oc3ccccc3n2c1Cl	-5	-9	-3	-7	4	7	i	.
Cc1ccc(-c2cc3nc(-c4ccc(Br)cc4)cc(N)n3n2)cc1	3	-16	-1	41	4	6	i	.
COC(=O)CCCC[C@@H]1SC[C@@H](NC(=O)OC)[C@@H]1NC(=O)OC	-17	-14	-4	-11	-4	-2	i	-301
Clc1ccc(-c2nnc(N3CCCC3)nn2)cc1	-11	-19	3	-5	8	0	i	-51
CCOc1ccccc1C(=O)N/N=C/c1coc2ccc(C)cc2c1=O	0	-12	-11	-7	-11	-1	i	5
COc1ccc(NC(=O)c2cc(C3CCCCN3S(=O)(=O)c3cn(C)cn3)on2)c(C)c1 (centres undefined)	.	-2	.	.	0	3	.	-19
Cc1ccc(-n2nc(C)c3c(C)cc(=O)[nH]c32)cc1	5	-10	-5	-2	-4	1	i	-77
CNC(=O)CC1C(=O)N(c2ccc(OC)cc2)C(=S)N1NC(=O)c1cccc(F)c1 (centres undefined)	-2	-3	-9	-7	13	-2	i	-7
CS(=O)(=O)N(CC(=O)N1CCc2ccccc2C1)Cc1ccc(F)cc1	-7	-12	-18	.	0	-5	i	12
Cc1ccc(N2C(=O)C(CN(C)C)C2c2ccccc2)cc1 (centres undefined)	4	-14	12	-7	-1	0	i	.
COc1ccc(S(=O)(=O)N2CCCC2CNC(=O)C(=O)NCc2ccccc2Cl)cc1 (centres undefined)	.	.	.	1	1	-9	i	-7
CCCCN1/C(=C/c2cccc[n+]2C)Sc2cc(NC(C)=O)ccc21	61*	-7	0	-11	-7	-2	i	-7	eIF4H FP inh retest=-4;PABP polyA inh retest=74*
CCc1nnc(NC(=O)CSc2ncc(-c3ccccc3)n2CC)s1	12	-7	-9	-13	0	0	i	2
COc1cc(C)ccc1OCCCOc1c(Cl)cccc1Cl	-10	-16	-10	13	3	3	i	-15
COc1ccc(C(=O)/C=C2/c3ccccc3CC(C)(C)N2C)cc1	0	-11	2	52	1	-7	i	-112
CCOC(=O)c1c(C)n(OC)c2ccc3c(no[n+]3[O-])c12	1	-9	2	16	3	-3	i	.
CC(=O)N1c2ccc(S(=O)(=O)N3CCCCC3)cc2CC1C(=O)NCc1ccc(N(C)C)cc1 (centres undefined)	8	3	13	-8	0	-2	i	4
O=C1NC(=S)N/C1=C/c1cccnc1	0	-8	1	-6	-15	-14	i	37
C#CCOCCOCCOCCNc1nc(N2CCOCC2)nc(N2CCN(C(=O)[C@H](CCCCN)n3cc([C@@H](N)C(C)CC)nn3)CC2)n1 (some centres undefined)	41	33	24	-21	0	2	i	24
COC(=O)N/N=C/c1c(C)c(C(=O)c2ccc(F)cc2)n2ccccc12	-2	-5	7	19	5	-3	i	-56
CCN(CC)S(=O)(=O)c1cccc(-c2nnc(SCC(=O)N3CCC(C(=O)O)CC3)n2N)c1	-4	.	-1	-16	2	12	i	1
COc1ccc(C(=O)N2CCCC(Nc3ccc(C)c(C)c3)C2)cc1F (centres undefined)	4	-3	-8	-4	-1	4	i	28
COc1ccc(C2Nc3ccccc3C(=O)N2NS(=O)(=O)c2ccccc2)cc1OC (centres undefined)	3	.	8	-14	-4	0	i	3
COc1ccc(OC)c(CCNC(=O)CCc2cn(C)c3ccccc23)c1	2	7	-5	-3	4	-1	i	24
O=C(Cn1c2c(c(-c3ccccc3)cc1=O)CCCC2)N1CCCCCC1	-1	-9	-4	0	-5	-4	i	.
Cc1ccc(S(=O)(=O)CC(C)(O)CS(=O)(=O)c2ccc(C)cc2)cc1	0	-1	0	-12	2	2	.	-5
N#Cc1ccsc1NC(=O)CSc1nnc(NC2CC2)s1	.	9	.	.	6	8	.	-57
Cn1ccc2c(-c3ccc(C(C)(C)C)cc3)cc3c(c21)C1CCC3C1 (centres undefined)	.	-9	.	.	4	3	.	-11
CC(=O)c1cccc(NC(=O)CSc2nnc(C(C)N(C)C)n2-c2ccc(F)cc2)c1 (centres undefined)	9	-6	-1	0	0	-3	i	-15

The list goes on.
SMILES	PABP polyA inh	UUG fidelity	eIF4H FP inh	CSC inhib	MT1-MMP act inh	MT1-MMP act inh RFP	Rce1 inhib	HIV Env fusion	others
Clc1ccc(C2=Nn3c(nnc3-c3n[nH]c4c3CCC4)SC2)cc1	7	3	0	46	16	3	i	.
O=C(Nc1ccc(O)cc1C(=O)O)c1cccc(Br)c1	10	-1	0	17	4	9	i	.
CCN(CC)CCn1c2c(c(SCC(=O)Nc3cccc4ccccc34)nc1=O)CCC2	.	-3	.	-10	2	3	i	9
COc1cc(C(=O)NCC(=O)NNC(=O)C2COc3ccccc3O2)cc(OC)c1OC (centres undefined)	.	-13	.	.	2	0	.	0
COCCn1c(SCC(=O)N2CCCC2)nnc1-c1ccoc1C	-8	-9	6	-9	-4	1	i	-23
OC(CC#CCN1CCCC1)(c1ccccc1)c1ccccc1	12	.	5	-7	-2	-1	i	-4
COCCNC(=O)CCn1nc(-c2ccc(C)cc2)ccc1=O	4	-19	-7	.	1	2	i	10
CN(C)CCOC(=O)C12CC3CC(C1)CC(C(=O)OCCN(C)C)(C3)C2	-1	.	1	2	-1	1	i	2
COc1ccc(C(C(=O)NC(C)(C)C)N(C(=O)CCC(=O)Nc2cc(C)on2)c2ccc(C)c(C)c2)cc1 (centres undefined)	-3	-5	-12	-9	-4	-4	i	-5
COc1ccccc1C1NC(=O)c2ccccc2O1 (centres undefined)	4	4	-3	12	1	5	i	-9
O=C1[C@H]2[C@@H](c3ccc(F)cc3)N3C(=O)N(c4cccc(Cl)c4)C(=O)[C@@]3(Cc3ccccc3)[C@H]2C(=O)N1C1CCCCC1	.	-24	.	8	-3	-9	i	14
CCOC(=O)N1CCN(C(=O)C2CCN(C(=O)c3ccc([N+](=O)[O-])cc3)CC2)CC1	8	-7	-17	-13	-2	1	i	.
O=C(NCCC1CCCCN1S(=O)(=O)c1ccc(F)cc1)C(=O)Nc1ccccc1 (centres undefined)	.	-7	.	-12	-2	-2	i	12
COc1cc(/C=C/C(=O)Nc2nnc(CC(C)(C)C)s2)cc(OC)c1OC	10	-12	-4	.	4	4	i	-12

3 compounds picked at random from those above:
SMILES	PABP polyA inh	UUG fidelity	eIF4H FP inh	CSC inhib	MT1-MMP act inh	MT1-MMP act inh RFP	Rce1 inhib	HIV Env fusion	others
CCOC(=O)N1CCN(C(=O)C2CCN(C(=O)c3ccc([N+](=O)[O-])cc3)CC2)CC1	8	-7	-17	-13	-2	1	i	.
CCN(CC)CCn1c2c(c(SCC(=O)Nc3cccc4ccccc34)nc1=O)CCC2	.	-3	.	-10	2	3	i	9
OC(CC#CCN1CCCC1)(c1ccccc1)c1ccccc1	12	.	5	-7	-2	-1	i	-4

Not all compounds are listed, so the mix of outcomes need not match the whole.
